# Assay outcomes: PubChem, several laboratories
# UCH37 inh – blocks the human deubiquitinase UCH37. inhibition, % (no concentration beside the values). purified proteasome/UCH37, Ub-AMC cleavage fluorescence. AID 588478. 0.33% of 330,000 active;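 active = mean of two replicates above 20%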;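 note: 0% = compound-free wells with enzyme and 100% = wells lacking proteasome; stock transfer was 100 nL into about 20 µL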
# Target sequence (Q9Y5K5 whole entry, looked up): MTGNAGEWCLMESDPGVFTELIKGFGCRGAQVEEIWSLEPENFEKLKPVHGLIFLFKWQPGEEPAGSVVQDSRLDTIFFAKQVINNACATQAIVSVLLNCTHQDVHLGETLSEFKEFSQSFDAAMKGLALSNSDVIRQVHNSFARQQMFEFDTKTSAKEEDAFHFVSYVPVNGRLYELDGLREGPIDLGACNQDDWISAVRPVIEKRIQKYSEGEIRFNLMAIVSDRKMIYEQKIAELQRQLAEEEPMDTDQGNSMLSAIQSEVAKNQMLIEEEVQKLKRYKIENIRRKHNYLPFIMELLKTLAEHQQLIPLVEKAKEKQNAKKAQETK
#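 Material: Human UCH37 enzyme supplied as purified proteasome complex | Schedule: 30 min preincubation with enzyme, 25 min cleavage at room temperature | Detection: AMC fluorescence 355/460 nm | Measure: % inhibition of Ub-AMC cleavage fluorescence | Controls: Wells without proteasome as full block, compound-free enzyme plus substrate as uninhibited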
# FGF22 binding – FGF22 (human) thermal shift binding. calls only at 9.99 µM. AID 651658. recombinant FGF22 thermal shift, SYPRO orange fluorescence; percent of sucrose octasulfate shift, DMSO zero. 1.5% of 340,000 active;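 active = melting point raised past a set limit in the mean and every replicate; three in four hits are not shown here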
# Target sequence (Q9HCT0 whole entry, looked up): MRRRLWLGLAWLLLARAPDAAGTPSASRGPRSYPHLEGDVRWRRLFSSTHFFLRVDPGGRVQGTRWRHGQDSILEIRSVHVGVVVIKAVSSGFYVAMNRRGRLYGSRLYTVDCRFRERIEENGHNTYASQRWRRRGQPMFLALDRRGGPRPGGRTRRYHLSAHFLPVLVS
# E coli growth – E. coli growth inhibition; Escherichia coli growth, OD600, 23 h; hits give low values; OD600 absorbance (concentration not given with the values); 0.21% of 330,000 active; AID 1053175;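 active = OD600 absorbance below the run mean of sample wells minus 3.6 SD, in any replicate, cut at about 0.56 in these data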;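 note: stock transfer was 300 nL into about 60 µL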
# ALR inh – inhibitors of human sulfhydryl oxidase ALR; P55789; purified ALR, DTT oxidation, H2O2 HRP-luminol luminescence; inhibition, % (concentration not given with the values); 3.8% of 290,000 active; AID 485317;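 active = mean and each replicate at 75% or more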;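 note: stock transfer was 7.5 nL into about 7.5 µL; 0% = neutral wells and 100% = wells with inactivated enzyme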
# HNF4A DNA FP – change in binding of human HNF4 alpha to DNA | HNF4a-FITC DNA binding, fluorescence polarization, 1 h | activity change, % at 10 µM | 0.3% of 360,000 active; in the data active = activity change above about 30%, passing the limit was not always enough;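 note: controls were the assay level and a saturating level of protein; the project sought stronger binding though the title names inhibitors; some compounds called inactive have numbers as strong as hits; positive values seem to mean higher polarization but the record does not say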
# LANA-H2A inh – blocks KSHV LANA binding to histone H2A/H2B; cell-free LANA-H2A/H2B peptide, fluorescence polarization; inhibition, % (test concentration not listed); 0.6% of 320,000 active; in the data active = inhibition mostly above about 10%, no sharp cut-off; inactive = mostly below about 6.7%;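 note: stock transfer was 7.5 nL into about 10 µL; 0% = median of vehicle wells and 100% = median of positive control wells; one replicate is shown; the record names a cut of 25% in any replicate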
# B2AR ag – activates human beta-2 adrenergic receptor causing internalization; P07550; Am2.2-beta2AR cells, FAP receptor internalization, flow cytometry; reference of the scale not given here; response, % (no concentration beside the values); 0.43% of 340,000 active; AID 504454;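 active = response above a set limit, near 3 SD of response in nonfluorescent compounds, cut at about 42% in these data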;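 note: stock transfer was 100 nL into about 11 µL; a reference agonist was the positive control; negative values mostly stem from fluorescent compounds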
# Target sequence (P07550 whole entry, looked up): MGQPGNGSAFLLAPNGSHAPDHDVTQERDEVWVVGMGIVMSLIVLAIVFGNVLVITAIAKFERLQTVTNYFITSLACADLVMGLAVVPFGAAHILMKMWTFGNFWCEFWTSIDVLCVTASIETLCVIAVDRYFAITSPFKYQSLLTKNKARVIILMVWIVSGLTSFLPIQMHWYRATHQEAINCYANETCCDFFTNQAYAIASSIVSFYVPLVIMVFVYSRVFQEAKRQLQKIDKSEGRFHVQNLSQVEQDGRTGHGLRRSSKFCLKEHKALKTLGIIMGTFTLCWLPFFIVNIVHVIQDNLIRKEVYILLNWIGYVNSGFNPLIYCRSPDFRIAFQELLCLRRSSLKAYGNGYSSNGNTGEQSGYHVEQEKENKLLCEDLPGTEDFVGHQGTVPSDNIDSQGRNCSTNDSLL
# Starred values were filed as active, the others as inactive; i = inactive; . = not tested or not shown. The list is partial; rates above refer to the full screens.
SMILES,UCH37 inh,FGF22 binding,E coli growth,ALR inh,HNF4A DNA FP,LANA-H2A inh,B2AR ag
Cc1ccc(Cl)c(OCCCN(C)Cc2ccccc2)c1,5.5,i,0.67,-4,-1.8,0.2,-4
O=C(COc1ccc(Cl)cc1)NCCCNC(=O)c1cccnc1,-1.0,i,0.65,-3,1.6,-2.0,-3
Cc1ccc2c(COC(=O)C3CC(=O)N(c4ccc5c(c4)OCCO5)C3)cc(=O)oc2c1 (centres undefined),3.6,i,0.72,.,-4.7,4.3,-1
O=C(N/N=C/c1cccnc1)c1ccc(Cn2cc([N+](=O)[O-])cn2)o1,.,i,.,-2,2.7,2.1,12
CCOc1ccc(CNC(=O)CCS(=O)(=O)c2ccc3c(c2)NC(=O)CO3)cc1OC,-1.1,i,0.65,-1,-0.3,-3.6,0
CN(C)c1ccc(NC(=O)CCCc2ccccc2)cc1,3.5,.,0.66,.,-2.3,4.4,1
COCCCNc1nc2ccccc2nc1NS(=O)(=O)c1cccs1,-8.6,.,0.68,-1,-3.5,-3.4,2
Cc1noc(C)c1CCC(=O)N1CCCC(CO)(Cc2ccccc2)C1 (centres undefined),0.6,i,0.65,-3,2.4,-4.5,5
NC(=O)C1CCN(S(=O)(=O)c2ccccc2[N+](=O)[O-])CC1,3.7,i,0.68,2,-2.6,3.2,0
C#CCSc1nncn1C(=O)/C=C/c1ccccc1,4.4,.,0.67,11,.,2.8,.

# Quoted from the listing (3 entries):
SMILES,UCH37 inh,FGF22 binding,E coli growth,ALR inh,HNF4A DNA FP,LANA-H2A inh,B2AR ag
Cc1noc(C)c1CCC(=O)N1CCCC(CO)(Cc2ccccc2)C1 (centres undefined),0.6,i,0.65,-3,2.4,-4.5,5
NC(=O)C1CCN(S(=O)(=O)c2ccccc2[N+](=O)[O-])CC1,3.7,i,0.68,2,-2.6,3.2,0
C#CCSc1nncn1C(=O)/C=C/c1ccccc1,4.4,.,0.67,11,.,2.8,.

# The listing picks up, repeating the 7 entries before the break.
SMILES,UCH37 inh,FGF22 binding,E coli growth,ALR inh,HNF4A DNA FP,LANA-H2A inh,B2AR ag
O=C(N/N=C/c1cccnc1)c1ccc(Cn2cc([N+](=O)[O-])cn2)o1,.,i,.,-2,2.7,2.1,12
CCOc1ccc(CNC(=O)CCS(=O)(=O)c2ccc3c(c2)NC(=O)CO3)cc1OC,-1.1,i,0.65,-1,-0.3,-3.6,0
CN(C)c1ccc(NC(=O)CCCc2ccccc2)cc1,3.5,.,0.66,.,-2.3,4.4,1
COCCCNc1nc2ccccc2nc1NS(=O)(=O)c1cccs1,-8.6,.,0.68,-1,-3.5,-3.4,2
Cc1noc(C)c1CCC(=O)N1CCCC(CO)(Cc2ccccc2)C1 (centres undefined),0.6,i,0.65,-3,2.4,-4.5,5
NC(=O)C1CCN(S(=O)(=O)c2ccccc2[N+](=O)[O-])CC1,3.7,i,0.68,2,-2.6,3.2,0
C#CCSc1nncn1C(=O)/C=C/c1ccccc1,4.4,.,0.67,11,.,2.8,.
COCCN1C(=O)N[C@@H](c2cccc(C(F)(F)F)c2)[C@H](C(=O)OC)[C@H]1C,3.1,i,.,-9,-0.5,1.4,-4
CN1C(=O)CC(Nc2cccc3cccc(N)c23)C1=O (centres undefined),6.1,.,0.71,17,1.8,-1.1,13
Cc1nc(N)nc2c1CCCC2,2.0,.,0.64,-13,-2.2,-0.7,1
COc1ccc(C)cc1C(=O)CCC(=O)NCCc1ccc(S(N)(=O)=O)cc1,-4.9,i,0.69,18,-0.5,1.1,-3
CC(=O)c1ccc(NC(=O)CSc2nc3ccccc3c(=O)n2CCCN2CCOCC2)cc1,1.6,i,0.71,23,2.7,2.2,-11
C=Cc1ccc(Cn2nc(-c3ccc(C)cc3)ccc2=O)cc1,-0.5,i,0.66,-5,-1.0,-2.2,-8
CN(C(=O)c1cccnc1)c1nnc(-c2cnccn2)s1,0.7,.,0.77,-17,2.0,5.6,-3
CC(C)CCN(CCC(C)C)C(CO)(CO)CO,1.2,i,0.68,-1,-2.3,4.6,4
O=c1[nH]c(Sc2ccc([N+](=O)[O-])cc2[N+](=O)[O-])nc2ccccc12,7.0,i,0.59,-2,-1.2,0.4,4
Cc1ccccc1NC(=O)Cc1nc(CSc2nnc(-c3ccc4c(c3)OCO4)o2)cs1,1.5,.,0.77,.,2.7,3.8,4
Cc1oc(-c2ccccc2)nc1CSc1nc2c(c(=O)[nH]1)CCC2,3.5,i,0.73,.,-0.1,1.0,-1
CCN(CC)S(=O)(=O)c1cc(NC(=O)CSc2nc3c(cc2C#N)C(=O)CC(C)(C)C3)ccc1C,6.1,.,0.66,99*,1.6,-1.6,19
Nc1cc(-c2ccc(Cl)cc2)nn1S(=O)(=O)c1ccccc1,8.5,i,0.73,-4,7.8,-3.2,5
O=C(CCCN1C(=O)/C(=C\c2cccs2)SC1=S)Nc1cccnc1,5.3,i,0.69,-6,1.9,2.0,-3
COc1cc2nc(CSc3nc(-c4ccc(F)cc4)cs3)[nH]c(=O)c2cc1OC,-0.5,.,0.7,-8,6.4,6.1,-9
O=C(Cc1ccc(Br)cc1)OCC(=O)N1CCOCC1,3.2,i,0.72,3,-1.2,-2.5,0
COCCn1c(CN(Cc2ccccc2)Cc2ccccc2)nc2c1c(=O)n(C)c(=O)n2C,-0.1,.,0.76,9,5.3,1.2,-2
COc1ccc(/C=C2\SC(=S)N(CCC(=O)NC3CCCC3)C2=O)cc1OC,7.6,i,0.72,-5,2.4,3.3,-2
COc1ccc(N2CCN(C(=O)c3ccc(Cn4c(=S)[nH]c5ccc(N6CCOCC6)cc5c4=O)cc3)CC2)cc1,-61,i,0.74,-12,2.5,1.7,2
CCn1cc(CNC(=O)C2CCC(=O)N(Cc3ccc(Cl)cc3)C2)cn1 (centres undefined),1.1,i,0.66,-6,-1.4,-2.1,0
O=c1c2ccccc2nnn1CSc1nc2ccccc2c(=O)n1CCCO,1.5,i,0.7,1,-0.4,2.1,1
COc1ccc(/C=N/NC(=O)COc2ccc(Cl)cc2Cl)cc1Cn1nc(C)cc1C,.,i,.,-3,1.3,7.8,33
CCN(CC)C(=O)CSc1nc(N)c(C(=O)Nc2ccc(OC)cc2)s1,10,i,0.69,.,0.8,3.5,-2
CCN1C(=O)C(=O)N(CC(=O)N(C)CC(=O)Nc2ccccc2Cl)C1=O,-0.2,i,0.7,-4,-0.7,-0.1,-4
CCCn1c(CCNC(=O)c2ccco2)nc2ccccc21,3.6,i,0.67,0,0.2,-7.1,-14
COc1cccc(NC(=O)CC2SC(=Nc3ccccc3)NC2=O)c1 (centres undefined),-7.2,.,0.77,-8,2.1,-0.3,5
O=C(CC(c1ccccc1)c1ccccc1)Nc1ccncc1,-1.6,i,0.62,-2,1.9,-1.6,11
CCC(C)[C@H](NC(=O)NC1CC1)C(=O)O (some centres undefined),2.9,.,0.7,-3,-0.4,3.4,0
O=C1NC(=O)c2cc(NC(=O)C3CCCCC3)ccc21,-196,i,0.69,-8,0.1,-0.6,2
Cc1ccc(NC(=O)CNC(=O)c2ccc(OC(F)F)cc2)cc1S(=O)(=O)N1CCCCCC1,-0.1,i,0.68,.,-5.1,.,3
CCOc1ccc(CN2CCN(Cc3cc4ccccc4o3)CC2CCO)cc1 (centres undefined),1.0,i,0.67,.,-5.1,-3.1,6
CCc1cccc(OCC(=O)Nc2ccccc2N2CCCC2)c1,-3.3,i,0.68,13,0.4,1.3,19
Cc1cc(C)n(-c2ccc(C(=O)OCC(=O)Nc3ccc(Cl)cc3[N+](=O)[O-])cc2)n1,-0.3,i,0.7,-11,2.0,1.2,-3
CCc1cc(-c2n[nH]c(=S)n2-c2ccccc2C)cs1,2.4,.,0.68,34,0.4,-5.8,6
O=C(COC(=O)c1cc[n+]([O-])cc1)Nc1c(Cl)cccc1C(F)(F)F,-1.3,.,0.65,-1,-2.5,0.8,-5
Cc1cc(C)n(Cc2n[nH]c(=S)n2Cc2ccccc2)n1,1.2,.,0.73,.,0.9,2.4,7
COc1cccc(CN2CCNC(=O)C2CC(=O)NCCn2nc(C)cc2C)c1OC (centres undefined),-0.5,i,0.63,.,-1.9,2.7,-13
CCc1ccc(OCCOCC(O)CN2CCN(Cc3ccc(Cl)cc3)CC2)cc1 (centres undefined),0.7,i,0.66,-76,1.5,-2.4,1
COc1ccc(C(=O)OCC(=O)NC2CC2)cc1S(=O)(=O)N1CCOCC1,-2.9,i,0.68,1,-4.8,4.5,7
CN(C)C(=O)c1ccc(N/C=C(\C=O)c2nc3ccccc3o2)cc1,16,i,0.66,.,-6.5,1.2,-2
Nc1nnc(CC(=O)N2CCCCC2)s1,0.8,.,0.7,.,-0.1,0.7,4
CC(NC(=O)[C@H](Cc1c[nH]c2ccccc12)NC(=O)[C@@H]1Cc2ccccc2CN1)c1ccccc1 (some centres undefined),-1.5,i,0.66,.,-2.7,3.4,3
CC(NC(=O)[C@@H](C)NC(=O)[C@@H]1Cc2ccccc2CN1C(=O)OC(C)(C)C)c1ccccc1 (some centres undefined),3.7,i,0.7,3,0.7,0.3,-2
O=[N+]([O-])c1ccc(Sc2cccc3cccnc23)cc1,5.6,i,0.66,.,4.7,-1.6,1
CC(Sc1nc(C(F)(F)F)nc2ccccc12)C(=O)NC1CCCC1 (centres undefined),7.9,i,0.65,.,-0.9,.,-1
CN(C)c1ccc(NC(=O)COC(=O)c2cc(=O)c3ccccc3o2)cc1,1.0,i,0.66,99*,-6.8,2.1,3
COc1ccc(OC)c(CCNC(=O)CSc2ccsc2[N+](=O)[O-])c1,0.9,.,0.69,-9,-1.3,-0.1,-4
CCN1C(=O)c2cccc3c(S(=O)(=O)NCCc4c[nH]c5ccccc45)ccc1c23,-2.3,.,0.67,-10,2.1,0.8,4
c1ccc2c(Cn3ccnc3)cccc2c1,6.7,i,0.58,-8,-1.2,-0.1,-5
Cc1cccc(C)c1NC(=O)C(NC=O)c1ccccc1 (centres undefined),4.1,.,0.77,-2,0.0,-8.6,1

# Carrying on:
SMILES,UCH37 inh,FGF22 binding,E coli growth,ALR inh,HNF4A DNA FP,LANA-H2A inh,B2AR ag
CC(=O)c1c(C)[nH]c(C(=O)N2CCN(c3ccc(F)cc3)CC2)c1C,5.0,i,0.65,23,-1.8,1.0,-19
Cc1ccc(/C=C2/SC(=S)N(CCC(=O)N3CCN(C)CC3)C2=O)cc1,1.7,i,0.71,5,-3.4,0.5,2
Cc1cccc(C)c1NC(=O)C(=O)NCC1CCCN1S(=O)(=O)c1ccccc1 (centres undefined),1.0,i,0.68,5,3.3,-0.8,8
O=C(C1CC(=O)N(c2ccc3c(c2)OCCO3)C1)N1CCN(c2cccc(C(F)(F)F)c2)CC1 (centres undefined),1.1,.,0.69,.,2.2,-1.1,-14
O=C(Nc1cccnc1)NC1CCCCC1,2.8,i,0.68,72,4.2,4.1,0
CN(C)CCNC(=O)C12CC3(C)CC(C)(CC(C)(C3)C1)C2,0.0,.,0.7,4,0.4,0.3,2
CC(=O)N1CCN(Cc2nc3cc(NC(=O)c4ccccc4C)ccc3n2C)CC1,3.9,.,0.8,-6,0.8,-0.6,4
O=[N+]([O-])c1cccc2nc3ccccc3c(NCCCn3ccnc3[N+](=O)[O-])c12,.,i,.,.,-1.4,.,-1
CC1=Nc2cc(C(=O)NCC3CCCO3)ccc2Sc2ccc(Br)cc21 (centres undefined),3.4,i,0.68,.,2.5,-3.0,3
COc1cccc(CN2CCN(Cc3ccc4cccc(F)c4n3)CC2CCO)c1 (centres undefined),2.4,i,0.71,0,-1.0,-3.1,-3
CCn1cc([N+](=O)[O-])c(C(=O)NCc2ccc(Cl)cc2)n1,0.6,i,0.69,-7,1.5,-1.0,5
Cc1ccc(S(=O)(=O)N(C)CC(=O)N2CCC(C(N)=O)CC2)cc1,3.1,i,0.7,.,3.3,.,-2
Cc1cc(C)n2nc(SCc3c(F)cccc3Cl)nc2n1,2.9,i,0.65,2,-3.6,-2.3,-21
O=C(CCNC(=O)c1ccc(Cl)cc1)Nc1ncccc1O,3.4,i,0.62,-37,-5.1,-16,5
FC(F)(F)c1cccc(Cn2cnc(NC(=S)NCCc3ccccc3)n2)c1,4.0,i,0.7,-3,-3.5,-1.7,-5
